# UCH37 DUB inh: human UCH37 deubiquitinating enzyme inhibition | Q9Y5K5 | AID 588478 | inhibition, % (concentration not given with the values) | purified proteasome/UCH37, Ub-AMC cleavage fluorescence | hit rate 0.33% among 330,000;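 active means mean of two replicates above 20%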;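 further: 0% = compound-free wells with enzyme and 100% = wells lacking proteasome; stock transfer was 100 nL into about 20 µL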
# Target sequence (Q9Y5K5 whole entry, looked up): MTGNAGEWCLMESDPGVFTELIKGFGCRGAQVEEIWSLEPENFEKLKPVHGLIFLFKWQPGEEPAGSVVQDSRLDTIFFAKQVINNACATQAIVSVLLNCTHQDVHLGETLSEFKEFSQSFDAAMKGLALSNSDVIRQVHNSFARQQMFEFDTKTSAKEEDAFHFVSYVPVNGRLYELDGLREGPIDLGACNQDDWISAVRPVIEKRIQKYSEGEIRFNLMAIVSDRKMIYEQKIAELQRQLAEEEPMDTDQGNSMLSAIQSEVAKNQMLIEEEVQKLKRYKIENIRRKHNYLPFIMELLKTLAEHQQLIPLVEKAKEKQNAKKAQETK
#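 Material: Human UCH37 enzyme supplied as purified proteasome complex | Schedule: 30 min preincubation with enzyme, 25 min cleavage at room temperature | Detection: AMC fluorescence 355/460 nm | Measure: % inhibition of Ub-AMC cleavage fluorescence | Controls: Wells without proteasome as full block, compound-free enzyme plus substrate as uninhibited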
# MLL AF4-AF9 inh: MLL-AF4/AF9 protein interaction inhibition. P42568. AlphaScreen, biotin-AF4 peptide binding to FLAG-AF9. inhibition, % at 10 µM. hit rate 0.47% among 350,000. AID 651704;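 active means every replicate reaching a set inhibition limit, whatever the replicate mean, cut at about 25% in these data; inconclusive means mean inhibition reaches that limit but some replicates miss it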;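 further: 0% = plate neutral control median and 100% = total signal loss; the record names both 10 and 1 µM as test concentration; the first replicate is given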
# Target sequence (P42568 whole entry, looked up): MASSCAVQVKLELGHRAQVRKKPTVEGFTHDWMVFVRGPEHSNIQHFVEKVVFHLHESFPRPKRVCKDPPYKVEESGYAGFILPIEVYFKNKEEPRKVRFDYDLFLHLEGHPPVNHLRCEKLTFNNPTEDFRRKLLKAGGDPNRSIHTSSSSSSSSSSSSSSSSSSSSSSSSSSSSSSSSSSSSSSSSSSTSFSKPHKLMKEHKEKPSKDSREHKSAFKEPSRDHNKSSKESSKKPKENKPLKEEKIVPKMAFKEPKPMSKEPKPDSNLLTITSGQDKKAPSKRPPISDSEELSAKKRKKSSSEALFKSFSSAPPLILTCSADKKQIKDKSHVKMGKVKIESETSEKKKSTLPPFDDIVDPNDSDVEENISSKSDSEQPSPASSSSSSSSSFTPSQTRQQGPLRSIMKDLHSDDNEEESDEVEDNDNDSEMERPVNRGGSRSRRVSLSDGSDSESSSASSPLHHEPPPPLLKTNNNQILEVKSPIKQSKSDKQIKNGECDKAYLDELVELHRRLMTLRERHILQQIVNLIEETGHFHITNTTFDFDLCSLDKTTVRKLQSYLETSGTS
# Ecoli growth: inhibitors of Escherichia coli growth | OD600, 23 h; stronger effect = lower value | OD600 absorbance (test concentration not listed) | hit rate 0.21% among 330,000 | AID 1053175;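 active means OD600 absorbance below the run mean of sample wells minus 3.6 SD, in any replicate, cut at about 0.56 in these data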;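 further: stock transfer was 300 nL into about 60 µL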
# Bfl-1 A1 inh: inhibitors of the anti-apoptotic protein A1, read as caspase activation; MEF A1-2A-BIM cells, Caspase-Glo 3/7 luminescence, 3 h; percent of clofoctol response, vehicle zero; caspase activation, % (no concentration beside the values); hit rate 0.066% among 330,000; AID 2462;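 active means over half of replicate activation scores above 10%, or exactly half above 10 with the replicate mean above 10; inconclusive means replicate mean below 10 yet half the replicates above 10; inactive means over half of replicates below 10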;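 further: wells of about 30 µL received 50 nL stock; many hits fall short of the cut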
# FGF22 binding: shifts melting point of recombinant human FGF22 | Q9HCT0 | recombinant FGF22 thermal shift, SYPRO orange fluorescence; percent of sucrose octasulfate shift, DMSO zero | hit rate 1.5% among 340,000 | calls only at 9.99 µM | AID 651658;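 active means melting point raised past a set limit in the mean and every replicate; inconclusive means no clear call; three in four hits are not shown here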
# Target sequence (Q9HCT0 whole entry, looked up): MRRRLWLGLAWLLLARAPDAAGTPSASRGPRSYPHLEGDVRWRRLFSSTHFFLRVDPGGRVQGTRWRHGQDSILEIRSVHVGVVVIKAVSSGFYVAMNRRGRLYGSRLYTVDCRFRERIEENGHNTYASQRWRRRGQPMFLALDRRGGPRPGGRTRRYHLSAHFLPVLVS
# Ecoli rRNA inh: inhibits bacterial ribosomal RNA function over humanized ribosomes; E. coli WT GFP vs humanized-ribosome RFP mutants, fluorescence, 24 h; stronger effect = lower value; DMSO median 0, no signal -100; GFP signal change (wild-type ribosome), % (concentration not given with the values); hit rate 1.6% among 350,000;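 active means significant combined selectivity score with lowered wild-type GFP, culture density cut under 30%, mutant RFP and density less affected; inactive means any of these conditions unmet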; further: one replicate is shown; some compounds called inactive have numbers as strong as hits
# T cruzi inh: blocks replication of Trypanosoma cruzi | inhibition, % (no concentration beside the values) | hit rate 1.4% among 300,000 | AID 1885 | T. cruzi beta-gal in NIH3T3, luminescence, 90 h;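 active means mean inhibition across valid replicates above about 55%, limit read from the data; inconclusive means mean below that limit but half or more replicates reach it; inactive means mean below it, under half of replicates reach it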;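 further: signal also drops with host cell toxicity which is not excluded here; 0% = plate median of DMSO wells and 100% = zero luminescence signal; higher percent means less beta-gal luminescence so fewer parasites; stock transfer was 50 nL into about 50 µL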
# Beta apoptosis: blocks beta cell apoptosis; INS-1E cytokine-induced death, ATP luminescence, 48 h; percent of positive-control rescue, neutral wells zero; AID 435005; protection from apoptosis, % (test concentration not listed); hit rate 0.8% among 300,000;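 active means all replicates at 75% or more, or half of them and the mean; inconclusive means half reach 75% but not the mean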;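 further: 0% = cytokine-treated negative control wells and 100% = positive control rescue; higher means more ATP so stronger rescue from cytokine killing; wells of about 40 µL received 100 nL stock; the first replicate is given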
# Ecoli rRNA inh OD600: second read-out of Ecoli rRNA inh, no call of its own (marks repeat the call); OD600 change, %; measured here: OD600 growth;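 optical density of the mix in the first replicate; 0 = DMSO median and -100 = no signal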
# Ecoli rRNA inh RFP: recorded beside Ecoli rRNA inh, whose call it bears; RFP signal change, %; measured here: RFP humanized mutant strains;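 first replicate; 0 = DMSO median and -100 = no signal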
# * = called active by the depositor; i = inactive; ? = inconclusive; . = not tested or not shown. These rows are one share of the data; count on the stated rates, not on these rows.
SMILES,UCH37 DUB inh,MLL AF4-AF9 inh,Ecoli growth,Bfl-1 A1 inh,FGF22 binding,Ecoli rRNA inh,Ecoli rRNA inh OD600,Ecoli rRNA inh RFP,T cruzi inh,Beta apoptosis
O=C(CCN1C(=O)/C(=C\c2ccccc2Cl)SC1=S)N1CCN(c2ccccc2)CC1,6.5,.,0.79,0.7,.,.,.,.,-9,-16
CC(=O)Nc1ccc(S(=O)(=O)N(C#N)c2nc(C)cc(C)n2)cc1,0.1,1.0,0.68,0.4,i,9,10,7.4,-10,-8
CC(=O)Nc1ccc(C(=O)OCC(=O)N(c2ccccc2)C2CCCCC2)cc1,4.3,2.2,0.73,0.1,i,5,-2,2.6,.,-24
CCCCNC(=O)C1CC(c2cccc([N+](=O)[O-])c2)=NO1 (centres undefined),3.7,-5.1,0.64,-4.6,i,2,2,-6.4,-4,-1
O=C(NCC1CCN(C(=O)c2c(F)c(F)c(F)c(F)c2F)CC1)c1c(F)c(F)c(F)c(F)c1F,1.3,-3.2,0.7,-0.5,i,-1,-17,-1.4,7,2
O=C(N=C1SC2CS(=O)(=O)CC2N1c1ccccc1C(F)(F)F)C1CCCO1 (centres undefined),-0.9,-2.7,0.66,0.8,i,0,-2,1.1,-5,-5
O=C(O)c1sc2cc(C(F)(F)F)cnc2c1-c1ccccn1,6.1,-8.2,0.68,-0.4,i,8,0,2.6,7,-4
Cc1cc2nc(C3CCN(Cc4nnnn4Cc4ccccc4)CC3)[nH]c2cc1C,4.8,0.9,0.66,0.6,i,-21,-13,-0.7,2,28
Cc1ccc(NC(=O)CO/N=C(\N)c2nonc2N)cc1C,3.6,-1.5,0.67,0.5,.,8,-1,-1.7,-16,0
CCSc1nnc2c(n1)OC(c1ccc(C(=O)O)cc1)N(C(C)=O)c1ccccc1-2 (centres undefined),11,-0.7,0.72,1.2,.,17,10,-1.1,-2,-6
O=C(NCCCN1CCOCC1)c1cc2ccccc2cc1O,-11,-8.1,0.66,-0.3,i,-26,-50,15,1,-4
c1coc(CNc2nc3ccccc3n2CCN2CCOCC2)c1,2.3,.,0.67,0.2,.,.,.,.,5,13
CCCCNC(=O)c1nnn(-c2ccccc2)c1N,3.5,.,0.69,-1.4,.,.,.,.,7,-3
C=CCn1c(SCC(O)Cn2c3ccccc3c3ccccc32)nnc1-c1ccco1 (centres undefined),-1.1,.,0.74,0.3,.,.,.,.,32,8
N#Cc1cc2ccccc2nc1SCC(=O)Nc1ccccc1N1CCOCC1,4.5,.,0.68,-0.2,.,.,.,.,9,-8
O=C(NNC(=O)c1ccc2c(=O)n3c(nc2c1)CCC3)c1ccc(Cl)cc1,2.0,-0.6,0.68,?,i,-8,-13,3.4,.,1
CCOC(=O)C1CCCN(CC(=O)Nc2c(C(=O)OC)[nH]c3ccccc23)C1 (centres undefined),-5.3,.,0.7,1.4,.,.,.,.,-2,2
CCOCCCn1c(C)nc2c[n+](CC(=O)c3ccc4ccccc4c3)cc(Br)c21,-113,7.6,0.66,-0.5,i,-10,-7,0.6,16,11
O=[N+]([O-])c1ccc(Cl)c(C2Nc3cccc4cccc(c34)N2)c1,6.9,.,0.67,-0.1,.,.,.,.,21,4
O=S1(=O)CC(N2CCOCC2)c2ccccc21 (centres undefined),1.6,.,0.75,-0.3,.,.,.,.,-6,.
CC(=O)NS(=O)(=O)c1ccc(N=c2ssc3c2-c2ccc(C)cc2NC3(C)C)cc1,7.6,.,0.67,-0.3,.,.,.,.,0,-2
COc1cc(C(=O)NCC(c2cccnc2)N2CCN(C)CC2)cc(OC)c1OC (centres undefined),1.8,.,0.7,0.5,.,.,.,.,5,-4
Cc1cc(C(=O)N/N=C/c2cccs2)n[nH]1,.,-1.7,.,0.4,i,9,11,-0.3,-5,-7
CN=Cc1nc(-c2ccccc2)oc1O,19,.,0.76,-3.6,.,.,.,.,-13,2

# An excerpt from above, reduced to Beta apoptosis:
SMILES | Beta apoptosis
COc1cc(C(=O)NCC(c2cccnc2)N2CCN(C)CC2)cc(OC)c1OC (centres undefined) | -4
O=C(NNC(=O)c1ccc2c(=O)n3c(nc2c1)CCC3)c1ccc(Cl)cc1 | 1

# Continuation:
SMILES,UCH37 DUB inh,MLL AF4-AF9 inh,Ecoli growth,Bfl-1 A1 inh,FGF22 binding,Ecoli rRNA inh,Ecoli rRNA inh OD600,Ecoli rRNA inh RFP,T cruzi inh,Beta apoptosis
COc1ccc(NC(=O)C(C)(C)Oc2ccc(Cl)cc2)cn1,3.7,1.0,0.67,-0.8,i,4,0,3.9,.,-11
O=C(Cn1cc(C(F)(F)F)ccc1=O)N/N=C/c1ccc(F)cc1,.,-2.5,.,-0.3,i,13,3,0.4,2,-2
Cc1ccc2c(c1)oc(=O)n2CC(=O)c1ccccc1,1.0,-2.0,0.64,0.3,i,-6,-18,-0.2,5,-2
CCc1cccc(C)c1NC(=O)C1CCCO1 (centres undefined),-0.3,.,0.7,-0.2,.,.,.,.,-15,-5
COc1cc(C2Nc3ccc4ncccc4c3C3=C2C(=O)CCC3)cc(OC)c1OC (centres undefined),.,-1.2,.,0.0,i,-2,-8,2.8,-3,-1
CSc1ncccc1C(=O)OCC(=O)NC1CCC(C)CC1 (centres undefined),1.3,0.8,0.71,-1.0,i,10,3,2.3,.,-8
CCCCn1c(N)c(N(CC)C(=O)C2=COCCO2)c(=O)[nH]c1=O,-1.5,-0.5,0.75,-0.4,i,7,12,-1.3,0,-3
O=[N+]([O-])c1cc(S(=O)(=O)NCCc2ccccn2)ccc1Cl,-1.2,11,0.68,0.6,i,-1,7,-3.8,.,-7
O=S(=O)(NCc1ccccc1)c1ccc(NC(=S)NCc2ccco2)cc1,2.7,1.6,0.65,0.9,i,-4,-5,2.8,-25,.
COc1ccc(C2c3c(oc4ccccc4c3=O)C(=O)N2CC2CCCO2)cc1 (centres undefined),1.4,-1.5,0.7,0.5,i,-2,1,-1.8,-9,0
COc1ccc(/C(C)=N/NC(=S)NCCc2ccccc2)cc1,.,-0.2,.,-0.3,i,-25,-21,-0.3,?,8
CC(=O)C(Cc1ccccc1)NC(=O)CCl (centres undefined),3.2,-2.3,0.67,-0.7,i,12,2,-6.2,-6,5
CCCc1[nH]n(-c2ccc([N+](=O)[O-])cc2)c(=O)c1C=NCCN1CCNCC1,9.8,.,0.61,-7.4,.,.,.,.,1,0
COCCn1c(CN2CCN(C(=O)c3ccco3)CC2)nc2c1c(=O)n(C)c(=O)n2C,1.6,-0.6,0.68,0.1,i,5,5,0.1,-8,1
COCCCn1c(C)c(C(C)=O)cc(NC(=O)c2ccccc2)c1=O,6.5,-0.5,0.66,0.3,i,9,20,5.4,-2,6
OCCN(CCO)CC(O)Cn1c2ccccc2c2ccccc21 (centres undefined),4.4,6.7,0.63,-0.3,i,4,-1,0.3,1,3
CCCOc1ccc(C(=O)NNC(=O)c2cccc(S(=O)(=O)N3CCN(C(C)=O)CC3)c2)cc1OC,2.4,-0.6,0.68,0.0,i,7,8,1.7,-9,0
Cc1ccc(S(=O)(=O)CC(=O)NC(C)(C)C)cc1,1.9,.,0.73,-0.2,.,.,.,.,-6,-5
COc1ccc(CCNC(=O)COC(=O)c2ncc(Cl)c(Cl)c2Cl)cc1OC,5.1,1.1,0.66,.,i,6,0,3.2,.,.
COc1ccc(N(CC(=O)Nc2cc(C)ccc2C)S(=O)(=O)c2c(C)[nH]c(=O)[nH]c2=O)cc1,-0.5,-7.9,0.58,0.3,i,1,-2,-0.8,-13,-9
O=C(N/N=C/c1ccco1)C1CC(=O)N(c2ccccc2)C1 (centres undefined),.,-1.3,.,0.4,i,4,7,-1.2,-15,-7
CCn1cnc2cc(NCc3ccc(Cl)cc3)ccc21,-7.8,16,0.57,-0.6,i,-8,-10,-0.6,-8,1
O=C(CCl)NCCNC(=O)c1cc(OCC(F)(F)F)ccc1OCC(F)(F)F,-2.8,0.0,0.64,-0.4,i,11,4,0.1,-9,.
S=C(c1ccccc1)N(c1ccccc1)c1ccccc1,7.0,.,0.72,0.3,.,.,.,.,5,0
COc1ccc([N+](=O)[O-])cc1NC(=O)COC(=O)c1ccc(O)cc1,1.3,-4.0,0.73,0.2,i,12,4,-3.1,-11,-4
CCc1cc(=O)oc2cc(OC(C)C(=O)NCCCn3ccnc3)ccc12 (centres undefined),-13,-0.2,0.67,0.0,i,18,5,2.2,-3,-5
O=C(NCc1ccccc1)N[C@@H](Cc1ccccc1)C(=O)O,0.6,.,0.72,-0.4,.,.,.,.,-2,1
O=C(Nc1ccccc1)n1ccc(-c2ccc(-n3ccnc3)cc2)n1,.,2.6,.,-4.2,i,-10,-4,1.8,-22,2
CCOc1cc(CNC2CCCC2)ccc1OCc1ccccc1Cl,.,-4.3,.,0.3,i,-12,-28,18,38,21
CCCCN(CC)c1nc(-c2ccncc2)nc2ccccc12,1.5,.,0.71,-0.1,.,.,.,.,54,-7
CC1(C)Cc2c(ccc3ccccc23)/C(=C/C(=O)N2CCCCC2)N1,-4.8,.,0.68,1.2,.,.,.,.,15,5
Cc1ccccc1N(CC(=O)NCc1ccccc1)C(=O)CCC(=O)Nc1nccs1,1.6,-4.2,0.66,0.0,i,-2,-5,4.0,1,4
COc1ccc(-n2nc(C(=O)NCC(=O)N3CCN(Cc4ccc5c(c4)OCO5)CC3)c3ccccc3c2=O)cc1OC,-0.1,0.7,0.7,0.6,.,-5,-8,2.2,16,1
CCn1c(C)nc2cc(C(=O)N/N=C(\C)c3ccccc3O)ccc21,.,1.1,.,0.0,i,-20,-17,1.9,-8,4
COc1cc(Cl)ccc1OCc1cc(C(=O)NC(C)Cc2cnccn2)no1 (centres undefined),1.1,-2.6,0.68,0.1,i,-1,8,1.4,-1,.
COC(=O)c1ccccc1NC(=O)COC(=O)C1CCCCC1,3.6,-1.5,0.74,-0.7,i,0,-7,-2.8,1,0
Cc1nn(-c2ccccc2)c(C)c1C(=O)Oc1ccccc1,4.5,-4.6,0.69,-0.2,i,-29,-45,-6.7,18,-4
Cc1nn(Cc2ccccc2)c(Cl)c1/C=C/C(=O)OCC(=O)N1CCCC1=O,0.4,-17,0.73,-0.4,i,-4,-6,-2.8,-12,5
O=S(=O)(c1ccccc1)N1N=C(c2cccs2)CC1c1ccc(Br)cc1 (centres undefined),6.1,.,0.77,-1.1,.,.,.,.,2,17
Cc1cc(N2CCN(C(=O)/C=C/C(=O)O)CC2)c2ccccc2n1,6.6,-1.1,0.64,0.3,i,10,15,0.7,4,-2
COc1ccc(C(C)=O)cc1COC(=O)CCC(=O)N(CC(C)C)c1c(N)n(CC(C)C)c(=O)[nH]c1=O,2.1,-3.5,0.67,0.6,i,3,7,-1.4,-1,2
